# AmpC nodet inh: AmpC beta-lactamase inhibition, detergent-free assay. Potency, µM (highest dose often 28.7 µM), without a hit: top-dose activity change, negative = inhibition. AmpC nitrocefin hydrolysis, absorbance 480 nm, no detergent; potencies from a single point are estimates. hit rate 1.8% among 71,000. P00811; active = falling curve, for most hits resting on a single point; inconclusive = weak or doubtful change; inactive = flat or rising curve; note: % of control where 0% means no effect; about half of the hits show no inhibition at the top dose; a quarter of the inactives give rising signals
# Target sequence (P00811 whole entry, looked up): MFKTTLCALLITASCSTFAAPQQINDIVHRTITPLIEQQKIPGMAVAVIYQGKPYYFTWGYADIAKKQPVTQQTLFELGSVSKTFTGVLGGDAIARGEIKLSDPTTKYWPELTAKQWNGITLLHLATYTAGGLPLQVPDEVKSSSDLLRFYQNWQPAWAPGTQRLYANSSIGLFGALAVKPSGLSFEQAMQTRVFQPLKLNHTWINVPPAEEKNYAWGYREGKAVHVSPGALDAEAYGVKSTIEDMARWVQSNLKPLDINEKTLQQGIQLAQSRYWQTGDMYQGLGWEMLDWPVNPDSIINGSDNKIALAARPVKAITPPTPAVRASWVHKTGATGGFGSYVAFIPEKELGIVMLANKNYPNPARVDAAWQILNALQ
#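 AmpC in 20 mM phosphate buffer pH 7.0 was preincubated 15 min at room temperature with compounds. Nitrocefin (800 uM stock) was then added and hydrolysis followed at 480 nm every 20 s for 4 min.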
# * hit, by the source's call; & = joins results of further samples; [ ] = dose if it differs, or a comment. Potency is the fitted concentration of half-maximal effect. Not all compounds are listed; the hit share may differ from the screen's.
SMILES,AmpC nodet inh
CCC(=O)c1cc(-c2nc3ccccc3n2C)n(C)c1,10%
Cc1ccccc1Nc1ncnc2c1cnn2-c1ccccc1,-1%
COc1cccc(C(=O)Nc2ncc3c(n2)CC(c2ccc(OC)cc2OC)CC3=O)c1 (stereo unspecified),53%
COCCN1C(=O)C(CC(=O)Nc2ccc(C(C)=O)cc2)SC1=Nc1ccccc1 (stereo unspecified),90%
Cc1cc(C)n(-c2nc3c(c(=O)[nH]c(=O)n3C)n2Cc2cccc(Br)c2)n1,52%
O=C(CN1C(=O)C2CC=C(Cl)CC2C1=O)NCc1ccccc1 (stereo unspecified),-5%
Cc1cc(Nc2ccccc2)n(C(=O)c2ccc(N)cc2)n1,43%
CN1C(=O)C2(C(C#N)=C(N)Oc3c2oc(CO)cc3=O)c2ccccc21 (stereo unspecified),-1%
Cc1nc2ccc(NC(=O)N3CCSCC3)cc2nc1C,6%
O=C(O)c1ccc(Cl)c(NC(=O)C2CCCN2S(=O)(=O)c2cccc3nsnc23)c1 (stereo unspecified),-23%
CCSC1=C(C#N)C(c2ccccc2C)CC(=O)N1 (stereo unspecified),3%
Cc1cccc(C)c1NC(=O)C(c1cccs1)N(Cc1ccco1)C(=O)Cn1nnc2ccccc21 (stereo unspecified),29%
O=S(=O)(Nc1ccc2nc(-c3ccco3)[nH]c2c1)c1ccccc1,-20%
CC(C)C(=O)N(Cc1cc2ccccc2[nH]c1=O)C(C)(C)C,-10%
Cc1csc(NC(=O)CSc2ncnc3c2cnn3-c2ccccc2Cl)n1,8%
O=C(Nc1nc(-c2ccccc2)cs1)C1CCCN(S(=O)(=O)c2ccccc2)C1 (stereo unspecified),-18%
CCC(Sc1nccn1C)C(=O)Nc1cccc2ccccc12 (stereo unspecified),-3%
Cc1noc(C)c1-c1nc(NC2CC2)c2ccccc2n1,-6%
Cc1cc(Nc2ccc(C(C)C)cc2)n2ncnc2n1,30%
O=C(O)CCSSCCC(=O)O,-5%
CC(C)N1CCc2c(sc(NC(=O)c3ccc(S(=O)(=O)N4CCOCC4)cc3)c2C(N)=O)C1,114%
Cc1onc(-c2ccccc2)c1C(=O)N1CCCc2ccccc21,30%
CCN(CC)S(=O)(=O)N1CCC(C(=O)NC2CCCC2)CC1,-6%
COCCNC(=O)c1ccccc1-c1ccccc1C(=O)O,112%
COc1ccc(CNC(=O)Nc2ccc(OC)cc2)cc1,-3%
O=S(=O)(O)c1ccc(-c2nnc(-c3ccccn3)nc2-c2ccc(S(=O)(=O)O)o2)o1,9%[5.75 µM]
CC(=NCCc1ccccc1)C1=C(O)COC1=O,1%
CCCn1c(=C(C#N)C#N)s/c(=C2\C=Cc3ccccc3N2CC)c1=O,2%
CN1CCN(CCCNC(=O)c2ccc3c(c2)N(Cc2ccccc2)CCS3)CC1,142%
O=C(Cn1c(C(=O)NCCCN2CCOCC2)cc2sccc21)c1ccccc1,75%
CC(=O)N1C(=O)C(=C2C=C(C)OC(C)=C2)c2ccccc21,18%
CCCc1[nH]nc2c1C(/C(C)=C/c1ccccc1)C(C#N)=C(N)O2 (stereo unspecified),-14%
CCN1CCC2(CC1)C(C#N)=C(N)Oc1c2sc2nc(C)cc(C)c12,14%
COCCN1C(=O)c2oc3ccccc3c(=O)c2C1c1cccc(O)c1 (stereo unspecified),-11%
COc1ncc2nc(CCc3ccccc3)c(=O)n(C3CC3)c2n1,18%
COc1ccc(C(O)C(CC(=O)NCCCOC(C)C)C(=O)NCCCOC(C)C)cc1OC (stereo unspecified),-1%
O=C(C1CCCN(Cc2cccs2)C1)N1CCCCCC1 (stereo unspecified),-2%
c1nnc(NCNc2nncs2)s1,4%[5.75 µM]
O=C(NCc1cccnc1)C1c2ccccc2C(=O)N1C1CCCCCC1 (stereo unspecified),-3%
COCCCN1C(=O)c2ccc(C(=O)Nc3ccc(OC)cc3OC)cc2C1=O,32%
N/C(=N\c1nc2ccccc2o1)NC(=O)C(Cc1ccccc1)N1C(=O)c2ccccc2C1=O (stereo unspecified),8%
Cc1nc(SCC(=O)Nc2ccccc2C(F)(F)F)c2c(=O)n(C)c(=O)n(C)c2n1,8%
CCn1c(CNc2ccccc2Cl)nnc1SCC(=O)OC1CCCCC1,56%
O=C(Cn1cnc2c(cnn2-c2ccccc2)c1=O)OCc1ccccc1,9%
CCOC(=O)CSC1=C(C#N)C(c2ccccc2)C(C(C)=O)=C(C)N1 (stereo unspecified),15%
O=C(O)C[C@H](Cc1ccccc1Cl)C(=O)O,0%[5.75 µM]
Cc1ccc(Cl)cc1N1CCN(Cc2nc3c(c(=O)[nH]c(=O)n3C)n2Cc2ccccc2F)CC1,1%
Cc1cc(N2C(=O)C(=O)/C(=C(/O)c3ccc(Cl)cc3)C2c2cccc(Br)c2)no1 (stereo unspecified),-9%
CN(C)/C=C1\C=C(c2ccccc2)OC1=O,0%
Cc1nc2ccccc2c2oc(C(=O)N3CCN(C4CCCCC4)CC3)cc12,54%
COc1cccc2cc(C(C)N(CCCN3CCOCC3)C(=O)Nc3ccccc3)oc12 (stereo unspecified),117%
CCOc1ccc(OCC)c(NC(=O)C2COc3ccccc3O2)c1 (stereo unspecified),4%
Cc1nc(NCC2CCCO2)c2oc3ccccc3c2n1 (stereo unspecified),10%
Cc1cccc(OCCCCCn2ccnc2)c1,9%
O=C(NCc1ccc(F)cc1)C1CCC(=O)N1CCc1ccccc1 (stereo unspecified),38%
Cn1c(=O)c2c(nc(CN3CCC(C(N)=O)CC3)n2Cc2ccccc2Cl)n(C)c1=O,54%
CCOc1ccc2nc(NC(=O)CSC3=NCCS3)sc2c1,24%
CCOC(=O)C1C(=O)NC(SC)=C(C#N)C1c1ccccc1F (stereo unspecified),-1%
Cc1ccc(S(=O)(=O)N[C@H](C(=O)N2CCC(C(=O)N3CCC[C@H]3C(=O)O)CC2)C(C)C)cc1,-13%
CC(C)(C)S(=O)(=O)c1ccccc1C(=O)O,-9%

# Among those listed so far, eight contain two or more sulfur atoms:
SMILES,AmpC nodet inh
O=C(O)c1ccc(Cl)c(NC(=O)C2CCCN2S(=O)(=O)c2cccc3nsnc23)c1 (stereo unspecified),-23%
Cc1csc(NC(=O)CSc2ncnc3c2cnn3-c2ccccc2Cl)n1,8%
O=C(Nc1nc(-c2ccccc2)cs1)C1CCCN(S(=O)(=O)c2ccccc2)C1 (stereo unspecified),-18%
O=C(O)CCSSCCC(=O)O,-5%
CC(C)N1CCc2c(sc(NC(=O)c3ccc(S(=O)(=O)N4CCOCC4)cc3)c2C(N)=O)C1,114%
O=S(=O)(O)c1ccc(-c2nnc(-c3ccccn3)nc2-c2ccc(S(=O)(=O)O)o2)o1,9%[5.75 µM]
c1nnc(NCNc2nncs2)s1,4%[5.75 µM]
CCOc1ccc2nc(NC(=O)CSC3=NCCS3)sc2c1,24%

# (listing goes on)
SMILES,AmpC nodet inh
COc1ccccc1NC(=O)C(C)N1CCN(C/C=C/c2ccccc2)CC1 (stereo unspecified),113%
O=C(c1ccccc1)c1cc2ccccc2o1,-14%
CCN(CC)CCCCn1c(-c2ccccc2)nc2c(N3CCOCC3)nc(C)nc21,22%
CCOP(=O)(NC(C)C)Oc1ccc(SC)c(C)c1 (stereo unspecified),61%
COc1ccccc1CN1CC(C(=O)NCc2cccnc2)CC1=O (stereo unspecified),-7%
CC(=O)C1=C(O)C(=O)N(Cc2ccccc2)C1c1cccs1 (stereo unspecified),-3%
Cc1cccc(C)c1NC(=O)N1CCC(N2CCCCC2)CC1,-7%
O=c1c2[nH]c3ccccc3c2ncn1C1CCCCC1,-4%
Cc1ccc(OC(=O)CCC(=O)OCCCC(F)(F)C(F)(F)F)cc1,23%
CCOc1ccc(OCC)c(NC(=O)CSc2nc3c(c(=O)n(C)c(=O)n3C)n2CC)c1,94%
COc1ccc(N2CCN(c3nc4c(c(=O)[nH]c(=O)n4C)n3Cc3cccc(C)c3)CC2)cc1,125%
COc1ccc(CCNC(=O)CCS(=O)(=O)c2cccc3nsnc23)cc1OC,3%
Cc1ccc2c(c1)N(CCC(=O)NCC1CCCO1)C(=O)CO2 (stereo unspecified),0%
O=C(NCc1ccccc1)c1ccc(/C=N/O)nc1,-8%
COc1cccc(NC(C)C(=O)N2CC(C)OC(C)C2)c1 (stereo unspecified),11%
CCOC(=O)c1c(NC(=O)c2noc3c2CCCC3)sc2c1CCCC2,5%
CC(C)Nc1nc(-c2ccccc2)nc(-n2ccnc2)n1,26%
c1ccc(Cc2nn3c(-c4ccncc4)nnc3s2)cc1,1%
CC(=O)N1CCc2cc(Br)cc(S(=O)(=O)NCCCN3CCCC(C)C3)c21 (stereo unspecified),-7%
O=C(c1ccc(S(=O)(=O)N2CCOCC2)cc1)N(Cc1ccco1)Cc1cccs1,83%
CN(C1CCCCC1)S(=O)(=O)c1ccc(S(=O)(=O)N2CCN(CCC#N)CC2)cc1,10%
O=S(=O)(Cc1ccccc1)N1CCc2ccccc21,1%
CCC(=O)OC1(C#CCOc2ccc(OC)cc2)CCN(C)CC1,10%
COCCNC(=O)CCn1nc(-c2ccc(Cl)cc2)ccc1=O,11%
CCCOc1ccc(C2C(C(=O)c3ccc(C)o3)=C(O)C(=O)N2CCN2CCOCC2)cc1OC (stereo unspecified),16%
O=C(OCCN1CCOCC1)C(c1ccccc1)c1ccccc1,100%
CC(=C(CCOP(=O)(O)O)SC(=O)c1ccccc1)N(C=O)Cc1cnc(C)nc1N,0%[12.8 µM]
Cc1cc(N2CCOCC2)cc(C)[n+]1[O-],-4%
CCN(CCCNC(=O)c1ccc(N2CCCC2=O)cc1)c1cccc(C)c1,79%
CCCCn1c2c(c(=O)n(C)c1=O)C(c1ccc(OC)cc1)N1CCCCCC1=N2 (stereo unspecified),100%
COc1ccc(C(=O)N2CCN(c3ccc(C)c(C)c3)CC2)cc1OC,128%
CCC(C)NC(=O)C1=C(C)C(=O)OC12CCC(C)CC2 (stereo unspecified),6%
O=C(CN1CCN(C(=O)c2c(F)cccc2F)CC1)Nc1ccccc1F,15%
Cc1ccc(-n2ncc3c(NCCCn4ccnc4)ncnc32)c(C)c1,-2%
O=C(CN1C(=O)c2ccccc2S1(=O)=O)NCCSc1ccccc1,0%
CC12CCC(C(=O)n3c1nc1ccccc13)C2(C)C (stereo unspecified),6%

# Some of the entries so far, tab-delimited.
SMILES	AmpC nodet inh
CC(=C(CCOP(=O)(O)O)SC(=O)c1ccccc1)N(C=O)Cc1cnc(C)nc1N	0%[12.8 µM]
Cc1cc(N2CCOCC2)cc(C)[n+]1[O-]	-4%

# New compounds follow.
SMILES,AmpC nodet inh
COc1ccc(CNc2nc3nc(C)c(Cl)c(C)n3n2)cc1OC,38%
Cc1nn(-c2nnc(C)c(=O)[nH]2)c(C)c1SCC(=O)Nc1ccc(C(C)C)cc1,1%
Cc1ccc(O)c(N=Nc2ccccc2)n1,43%&6%
COc1ccc(-n2c(Cc3cccn3C)nnc2SCC(=O)Nc2ccc(C(C)=O)cc2)cc1,118%
CC(C)(O)[C@H]1[C@H]2OC(=O)[C@@H]1[C@]1(O)C[C@H]3O[C@]34C(=O)O[C@H]2[C@]14C (tested in a mixture with another compound),6%
COc1ccc(CNC(=O)NCc2ccc(OC)c(OC)c2)cc1OC,-6%
CC[C@]1(C)CC(=O)NC1=O,6%[12.8 µM]
CN(c1cccc(NC(=O)COc2ccccc2)c1)S(C)(=O)=O,6%
COC(=O)CN1C(=O)C2(OCCCO2)c2cc(Br)ccc21,7%
CC(C)CN(C(=O)COC(=O)c1cc2c(s1)CCC2)C1CCS(=O)(=O)C1 (stereo unspecified),69%
NC(=O)c1ccsc1NC(=O)COC(=O)Cc1ccsc1,-8%
c1ccc(Nc2ccccc2Nc2ccccn2)nc1,-25%
Cc1ccc(NC(=O)CSCC(=O)Nc2ncc3c(n2)CC(c2ccco2)CC3=O)cc1 (stereo unspecified),8%
CCOC(=O)N1CCN(c2ncnc3c2oc2nc(C(C)C)c4c(c23)CCC4)CC1,90%
CCOc1ccc(C2C=C(c3ccc(C)cc3)Nc3nnnn32)cc1 (stereo unspecified),-5%
O=C(O)CCCSc1ccccc1,6%[5.75 µM]
NC(=O)NCCS[C@H]1CCCC[C@@H]1O,7%[5.75 µM]
Cc1ccc(N2CCN(CCc3nc4cc(NS(C)(=O)=O)ccc4n3C)CC2)cc1,43%
Cn1c(=O)c2c(nc(N3CCCCC3)n2CCCNC2=NCCCC2)n(C)c1=O,9%
COCCn1c(=O)c(C)nc2cnc(OCc3ccccc3)nc21,26%
COC(=O)c1cc(NC(=O)CC2NCCNC2=O)cc(C(=O)OC)c1 (stereo unspecified),2%
COc1cccc(C2=NOC(C(=O)N3CCC4(CC3)OCCO4)C2)c1 (stereo unspecified),28%
